# Cruzain noTriton: blocks cruzain activity in detergent-free assay; Potency, µM, inactives show max response, negative = inhibition, most hits filed as inhibitors; AID 1476; purified cruzain, Z-FR-AMC fluorescence, no detergent; 2.3% of 200,000 active;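 note: plate controls were enzyme without inhibitor for no effect and buffer without enzyme for full effect; nearly all actives have a fitted effect of over 40% in size; top concentration of the series not given in the record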
# Target sequence (P25779 123-467 limits assumed): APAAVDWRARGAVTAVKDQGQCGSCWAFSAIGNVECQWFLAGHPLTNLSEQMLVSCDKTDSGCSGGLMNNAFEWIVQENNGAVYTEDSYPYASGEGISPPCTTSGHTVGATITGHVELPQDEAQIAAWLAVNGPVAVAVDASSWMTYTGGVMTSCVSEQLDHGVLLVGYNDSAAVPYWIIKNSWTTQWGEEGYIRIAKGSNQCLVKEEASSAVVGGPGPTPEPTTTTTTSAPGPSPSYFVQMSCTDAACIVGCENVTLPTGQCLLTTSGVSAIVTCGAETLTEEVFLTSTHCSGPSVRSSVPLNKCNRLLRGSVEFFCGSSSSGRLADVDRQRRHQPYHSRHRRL
#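 Purified cruzain at 1.5 nM, pre-incubated 15 min with compound at room temperature in 100 mM sodium acetate pH 5.5, 5 mM DTT, 0.00005% Triton X-100. Reaction started with 2 uM Z-FR-AMC; AMC fluorescence increase over 60 s gives rate.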
# Lassa entry inh: inhibitors of Lassa virus binding or cell entry | Lassa virus pseudotype entry inhibition, cell reporter; control for the full effect not named in the record | Potency, µM (series often up to 37.9 µM), for inactives: at the top dose activity change, negative = inhibition, hits mostly inhibitors | 1.2% of 300,000 active; active means well fitted inhibition curve with a large enough effect; inconclusive means small, poorly fitted or top-dose-only effect, or effect the other way; inactive means flat fitted curve, though single readings scatter; tested in HEK293 cells; note: % is set by controls: 0 for no effect and ±100 for the full control effect; nearly all actives have a fitted effect of over 50% in size; luciferase read-out
# Cruzain inh Det: cruzain (T. cruzi) inhibition with detergent. P25779. purified cruzain, Z-FR-AMC fluorescence, 0.01% Triton. Potency, µM, inactives show max response, negative = inhibition, hits mostly inhibitors. 0.43% of 200,000 active. AID 1478;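 note: plate controls were neutral wells for no effect and buffer without enzyme for full effect; nearly all actives have a fitted effect of over 40% in size; top concentration of the series not given in the record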
#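 Cysteine protease activity tested under reducing, mildly acidic conditions (100 mM sodium acetate pH 5.5, 5 mM DTT) plus 0.01% Triton X-100. Cruzain 1.5 nM; substrate Z-FR-AMC 2 uM; 15 min compound preincubation at room temperature.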
# NS1 function inh: inhibitors of influenza NS1 protein function; S. cerevisiae slowed by influenza A NS1, growth recovery by OD600; Potency, µM (doses to about 46.1 µM), inactives show at the highest dose activity, positive = more growth; 0.4% of 270,000 active; active means well fitted rising curve with a large enough effect; inconclusive means small, poorly fitted or top-dose-only effect; inactive means no such curve, though single readings can be large or run the other way; note: nearly all actives have a fitted effect of over 50% in size
#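 Recovery from NS1-induced slow growth read by OD600 in budding yeast switched to galactose assay medium (pH 6.0, -URA) at 1:100 dilution. Compound 23 nl per well; the matching strain lacking NS1 serves as control.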
# 2A StopGo: lowers the luciferase signal of an FMDV 2A StopGo reporter; Potency, µM (doses to about 57.9 µM), inactives show at the top dose signal change, negative = less light; human cells with a luciferase reporter of 2A StopGo recoding; control for the full effect not named in the record; 1.2% of 410,000 active; active = well fitted falling curve with a large enough effect; inconclusive = small, poorly fitted or top-dose-only effect; inactive = no such curve, though single readings can be large or run the other way; tested in HEK293T cells; note: % is set by controls: 0 for no effect and ±100 for the full control effect; nearly all actives have a fitted effect of over 45% in size; luciferase light after 4 h
# RE007 growth inh: less growth of the S. pombe RE007 Vpr strain; S. pombe RE007 Vpr strain, BacTiter-Glo ATP luminescence, 24 h; control for the full effect not named in the record; Potency, µM (doses to about 92.2 µM), for the others: at the top dose activity change, negative = less growth; 0.21% of 360,000 active; AID 651644; active = well fitted falling curve with a large enough effect; inconclusive = small, poorly fitted or top-dose-only effect; inactive = no such curve, though single readings can be large or run the other way;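 note: % is set by controls: 0 for no effect and ±100 for the full control effect; nearly all actives have a fitted effect of over 50% in size; the assay follows cell death caused by Vpr and the record does not say whether a fall means rescue or toxicity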
#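 Fission yeast strain RE007, carrying one chromosomally integrated HIV-1 vpr copy, was seeded at OD 0.01 in PMG+AL medium with 23 nL pinned compound. After 24 h at 30 °C and 99% humidity, viability was read by BacTiter-Glo luminescence.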
# SARS PLP yeast: blocks SARS-CoV papain-like protease in a yeast assay; S. cerevisiae expressing SARS-CoV PLpro, growth rescue; control for the full effect not named in the record; Potency, µM (series often up to 32.9 µM), inactives show at the highest dose activity, positive = growth rescue; 0.19% of 330,000 active; AID 485353; active means well fitted rising curve with a large enough effect; inconclusive means small, poorly fitted or top-dose-only effect; inactive means no such curve, though single readings can be large or run the other way; note: 0% is about no effect; nearly all actives have a fitted effect of over 55% in size; growth read by luminescence after 48 h
# MARV entry inh: blocks Marburg virus binding to or entry into cells | Marburg virus pseudotyped entry inhibition, cell reporter; control for the full effect not named in the record; about a third of the inactives were read at about 46 µM | Potency, µM (top dose mostly 37.8 µM), without a hit: top-dose activity change, negative = inhibition, usual class: inhibitors | 1.8% of 300,000 active | AID 540276; active = well fitted inhibition curve with a large enough effect; inconclusive = small, poorly fitted or top-dose-only effect, or effect the other way; inactive = flat fitted curve, though single readings scatter; tested in HEK293 cells; about a fifth of its hits are not listed in these tables; note: % is set by controls: 0 for no effect and ±100 for the full control effect; luciferase read-out
# Active calls of the source: *; ? = inconclusive; / = no result given; & = joins results of further samples; [ ] = another dose, or the depositor's remark. Unless noted, calls come from the whole dose curve; as a rule, active = well fitted curve in the direction sought with a large enough effect; inconclusive = small, poorly fitted or top-dose-only effect, or another doubt; inactive = no such curve, though single readings can be large; an effect the other way counts as inactive or inconclusive. Potency is the fitted concentration of half-maximal effect.
molecule,Cruzain noTriton,Lassa entry inh,Cruzain inh Det,NS1 function inh,2A StopGo,RE007 growth inh,SARS PLP yeast,MARV entry inh
CCCCCCCCNC(=O)C(CCC(=O)OCc1ccccc1)NC(C)=O (stereo not drawn),?,-27.0%,0.1%,-2.8%,/,-0.5%,-7.3%,2.3%
O=C1Nc2ccc([N+](=O)[O-])cc2OC1CCN1CCN(Cc2ccccc2)CC1 (stereo not drawn),/,9.1%[46.1 µM],/,-1.1%,-8.0%,-18.6%,-0.4%,6.2%[46.1 µM]
Cc1cccc(C(=O)OC2CCOC2=O)c1C (stereo not drawn),/,-6.7%[46.1 µM],/,8.8%,-18.1%,-8.9%,3.3%,-3.4%[46.1 µM]
O=c1oc(Nc2ccccc2Cl)nc2ccccc12,/,/,/,1.1%,43.4%[activator],?,0.6%,/
COc1ccc(NC(=O)/C=C/c2cc(OC)c(OC)c(OC)c2)cn1,/,-5.7%,/,-5.5%,8.9%,-4.8%,0.5%,?
COc1ccc(CC(=O)Nc2nc3ccccc3[nH]2)cc1,/,6.6%[46.1 µM],/,10.5%,14.2%,-9.1%,-1.0%,12.9%[46.1 µM]
Cc1ccsc1C(=O)C1CCCN(Cc2cccn2-c2ccccn2)C1 (stereo not drawn),/,?,/,-2.5%,?,-16.4%,-1.4%,5.62µM*
COc1cc2cc(C(=O)Nc3ccccc3)c(N)nc2cc1OC,6.3%,-0.6%,-4.3%,-7.4%,-33.9%,-1.4%,-9.4%,-26.5%
COC(C[C@@H]1O[C@H]1[C@@H](O)COCc1ccccc1)OC,/,/,/,-1.2%,-1.8%,6.7%,-4.2%,/
Oc1ccccc1-c1nnc(SCCN2CCOCC2)n1Cc1ccccc1,3.2%,-20.2%,-2.4%,-56.5%,60.1%[activator],-4.8%,?,-28.5%
O=C(/C=C/c1ccco1)NC(=S)Nc1nc(-c2ccc(Cl)cc2)cs1,5.01µM*,6.9%,-2.2%,12.9%,-8.0%,-24.2%,7.7%,?
Cc1c(C(=O)Nc2cccnc2)oc2ccc(Br)cc12,/,?,/,-32.0%,61.9%[activator],-4.0%,-10.5%,5.01µM*
C=CCNC(=O)CN1N=C(c2ccc(C)cc2)CCC1=O,/,15.0%,/,-0.3%,-1.4%,-7.0%,-1.5%,-21.2%
O=C(CSc1nc(-c2cccs2)cc(C(F)(F)F)n1)Nc1cc(OCC(F)(F)C(F)F)cc([N+](=O)[O-])c1,-15.1%,?,-4.1%,4.4%,?,16.6%,12.5%,?
O=C(/C=C\c1cccs1)c1c(O)ccc2ccc(=O)oc12,6.1%,?,-7.3%,-28.5%,-24.0%,-5.4%,-22.3%,-8.8%
CSc1ncc(OCc2ccccc2)c(=O)[nH]1,/,/,/,0.5%,6.8%,13.7%,-0.8%,/
Cc1cc(C(=O)Nc2ncn(Cc3ccc(F)cc3)n2)ccc1[N+](=O)[O-],/,/,/,-3.4%,-7.5%,0.4%,0.9%,/
CCOc1ccc(-n2c(SCC(=O)N3CCCCCC3)nc3c([nH]c4ccccc43)c2=O)cc1,?,26.1%[46.1 µM],4.6%,/,?,/,/,/
O=C(Cc1ccccc1Cl)Nc1ccc(S(=O)(=O)Nc2nccs2)cc1,/,-29.9%[46.1 µM],/,-4.4%,27.0%,1.4%,?,2.0%[46.1 µM]
COc1ccc2cc(C#N)c(N3CCN(C(=O)c4ccccc4C)CC3)nc2c1,/,?,/,/,?,-2.6%,-1.5%,?
CCOc1ccccc1C(=O)N1CCN(CCc2ccccn2)CC1,-6.6%,-1.1%[46.1 µM],-0.3%,/,0.2%,/,/,-9.7%[46.1 µM]
Cc1cc(Cl)ccc1NC(=O)C1CCN(c2nnc(-n3c(C)ccc3C)s2)CC1,18.9%,?,-5.2%,/,-18.5%,/,/,-10.0%[46.1 µM]
O=C(Cn1cc(SCc2ccc(F)cc2)c2ccccc21)N1CCCCCC1,-1.7%,?,-6.6%,/,1.0%,/,/,/
CCCCC(=O)OCC(=O)Nc1ccc(SC(F)F)cc1,/,9.7%[46.1 µM],/,-7.3%,8.4%,-9.7%,-1.0%,17.4%[46.1 µM]
COC(=O)c1ccc(NC(=S)N2CCN(Cc3ccccc3OC)CC2)cc1,/,/,/,1.0%,-0.9%,17.0%,-0.2%,/
C=CC(=O)N1C(=O)c2ccccc2S1(=O)=O,7.3%,?,0.0%,/,/,/,/,67.1%&67.1%&67.1%[14.2 µM]
Cc1ccccc1OCC(=O)Nc1ccc2c(c1)n(C)c(=O)n2C,/,6.4%[46.1 µM],/,/,?,7.3%,-1.3%,3.5%[46.1 µM]
O=C(CCS(=O)(=O)c1ccc(F)cc1)N1CCOCC1,/,/,/,3.0%,43.3%[activator],21.3%,-1.9%,?
O=C(Nc1ccccn1)c1sc2cc([N+](=O)[O-])ccc2c1Cl,/,/,/,0.8%,39.9%[activator],-16.5%,-12.9%,/
Cc1cc(C)cc(NC(=O)CSc2nnc(C3CC3)n2CC2CCCO2)c1 (stereo not drawn),/,21.7%,/,-3.0%,3.5%,12.4%,7.7%,-1.2%[46.1 µM]

# Retrieved one by one from the list above (3):
molecule,Cruzain noTriton,Lassa entry inh,Cruzain inh Det,NS1 function inh,2A StopGo,RE007 growth inh,SARS PLP yeast,MARV entry inh
CCOc1ccccc1C(=O)N1CCN(CCc2ccccn2)CC1,-6.6%,-1.1%[46.1 µM],-0.3%,/,0.2%,/,/,-9.7%[46.1 µM]
Cc1cc(C(=O)Nc2ncn(Cc3ccc(F)cc3)n2)ccc1[N+](=O)[O-],/,/,/,-3.4%,-7.5%,0.4%,0.9%,/
O=C(Cn1cc(SCc2ccc(F)cc2)c2ccccc21)N1CCCCCC1,-1.7%,?,-6.6%,/,1.0%,/,/,/

# Back to the main list, repeating the 2 entries before the break.
molecule,Cruzain noTriton,Lassa entry inh,Cruzain inh Det,NS1 function inh,2A StopGo,RE007 growth inh,SARS PLP yeast,MARV entry inh
O=C(Nc1ccccn1)c1sc2cc([N+](=O)[O-])ccc2c1Cl,/,/,/,0.8%,39.9%[activator],-16.5%,-12.9%,/
Cc1cc(C)cc(NC(=O)CSc2nnc(C3CC3)n2CC2CCCO2)c1 (stereo not drawn),/,21.7%,/,-3.0%,3.5%,12.4%,7.7%,-1.2%[46.1 µM]
CCn1cc2c(n1)-c1c(oc(C(=O)Nc3cccc(C(F)(F)F)c3)c1C)CC2,-2.9%,4.8%[46.1 µM],-12.0%,/,5.8%,/,/,/
OC(COCc1cccs1)CN1CCN(c2ccccn2)CC1 (stereo not drawn),6.2%,1.4%,-2.5%,-0.6%,17.1%,-11.0%,6.3%,3.8%
O=C(NC1CC(=O)N(c2ccc(F)cc2)C1)C(c1ccccc1)c1ccccc1 (stereo not drawn),-1.1%,-17.3%[46.1 µM],-4.3%,/,-23.6%,/,/,/
O=C(NC1(C(F)(F)F)N=C(c2ccccc2)NC1=O)c1ccc(Cl)cc1Cl (stereo not drawn),5.9%,35.6%[14.3 µM],4.3%,11.3%,-5.5%,-5.9%,6.1%,?
COCCN=c1scc(C)n1/N=C/C1CC2C=CC1C2 (stereo not drawn),/,/,/,/,22.0%,-16.9%,-2.6%,-9.9%[46.1 µM]
O=C(/C=C/c1cccc([N+](=O)[O-])c1)Nc1ccccc1N1CCOCC1,-5.3%,-18.5%,-5.6%,-28.1%,?,-0.8%,5.7%,2.6%
CC(C)Oc1ccc(C(=O)NC2(C(F)(F)F)N=C3SCCN3C2=O)cc1 (stereo not drawn),2.7%,2.9%,2.5%,7.9%,2.5%,9.4%,1.0%,-14.7%
CC(=O)Nc1ccc(OCC(O)CN2CCN(c3cc(Cl)ccc3C)CC2)cc1 (stereo not drawn),1.6%,-4.7%,4.5%,-7.2%,-13.3%,-6.0%,-2.3%,?
Cc1ccc(Oc2cc(NN3CCCCC3)c([N+](=O)[O-])cc2[N+](=O)[O-])c(Cl)c1,/,/,/,22.2%,-21.2%,7.8%,-15.0%,/
O=C1CC(C(=O)Nc2ccc(Br)cc2)S/C(=N\N=C\c2ccco2)N1 (stereo not drawn),/,-0.8%,/,3.4%,4.3%,3.3%,0.6%,-23.3%
COCCn1c(SCC(N)=O)nc2c(c1=O)SC(C)C2 (stereo not drawn),-5.3%,/,-6.7%,-3.8%,-4.5%,1.9%,-3.3%,/
Cc1cc(Nc2ccc(Br)c(C)c2)n2nc(C)nc2n1,2.5%,?,-2.5%,-72.7%,-16.3%,7.7%,-0.8%,1.0%
COc1ccc(C(=O)Nn2c(SCC(=O)c3ccccc3)nc3ccccc3c2=O)cc1,?,?,-4.3%,7.8%,?,1.5%,4.2%,?
COCCn1c(=NC(=O)c2ccc(S(=O)(=O)N3CCc4ccccc4C3)cc2)sc2cc(OC)ccc21,3.98µM*,-0.2%,-3.3%,16.1%,-5.9%,-18.0%,2.9%,-7.1%
Cc1[nH]c2ccccc2c1C(=O)COC(=O)Cn1cnc2ccccc21,11.7%,27.7%,-3.8%,-6.7%,0.0%,1.5%,3.7%,?
Cc1nn(C)cc1C1C2=C(CC(C)(C)CC2=O)OC2=C1C(=O)CC(C)(C)C2,8.8%,-17.8%,-0.6%,-3.0%,/,-6.1%,-0.1%,-23.2%&-23.2%
COc1cccc(C2CC(c3ccccc3Cl)Nc3nc(N)nn32)c1 (stereo not drawn),5.3%,-5.1%,-2.0%,13.7%,0.0%,12.7%,-26.4%,3.1%
CCOc1ccc(NC(=O)c2ccc3c(=O)n4c(nc3c2)CCCCC4)cc1,-11.3%,-2.3%&10.1%[46.1 µM],-1.9%,4.0%,?,-10.7%,2.4%,-2.2%&-20.8%[46.1 µM]
Cc1ccccc1-n1nc2c(c1NC(=O)c1ccc3c(c1)OCO3)CS(=O)(=O)C2,/,0.0%,/,-2.6%,-9.6%,32.3%,3.2%,14.0%

# Not a hit list; any-hit rate near 4.6%.
